AF4-AF9 inh: MLL-AF4/AF9 protein interaction inhibition. P42568. AlphaScreen, biotin-AF4 peptide binding to FLAG-AF9. inhibition, % at 10 µM. 350,000 compounds, 0.47% hits. AID 651704;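 active = every replicate reaching a set inhibition limit, whatever the replicate mean, cut at about 25% in these data; inconclusive = mean inhibition reaches that limit but some replicates miss it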;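 also: 0% = plate neutral control median and 100% = total signal loss; the record names both 10 and 1 µM as test concentration; the first replicate is given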
Target sequence (P42568 whole entry, looked up): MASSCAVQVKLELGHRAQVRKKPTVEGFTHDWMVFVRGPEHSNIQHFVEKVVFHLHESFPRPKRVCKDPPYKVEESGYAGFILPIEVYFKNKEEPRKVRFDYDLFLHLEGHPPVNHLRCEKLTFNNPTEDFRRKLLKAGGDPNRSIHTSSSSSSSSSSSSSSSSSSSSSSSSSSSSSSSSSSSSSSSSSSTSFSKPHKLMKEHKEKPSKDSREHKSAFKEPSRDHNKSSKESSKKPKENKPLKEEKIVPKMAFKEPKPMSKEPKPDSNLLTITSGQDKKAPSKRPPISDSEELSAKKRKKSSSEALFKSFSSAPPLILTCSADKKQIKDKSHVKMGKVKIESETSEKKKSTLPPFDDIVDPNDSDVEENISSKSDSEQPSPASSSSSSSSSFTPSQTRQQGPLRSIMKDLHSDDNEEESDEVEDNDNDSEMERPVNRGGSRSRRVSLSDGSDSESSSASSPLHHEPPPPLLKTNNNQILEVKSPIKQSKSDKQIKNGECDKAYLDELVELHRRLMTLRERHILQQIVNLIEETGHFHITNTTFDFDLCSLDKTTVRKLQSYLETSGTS
* = called active by the depositor; ? = inconclusive; & = joins results of further samples. This is a subset, so the mix of outcomes need not match the whole.

AF4-AF9 inh	mol
1.5	O=C(c1cccc(F)c1)N1C[C@@H]2[C@H](c3ccccc31)[C@H](CO)N2C(=O)c1cccc(F)c1
2.1	C[C@@H]1CN([C@H](C)CO)C(=O)c2cccc(NC(=O)Nc3cccc4ccccc34)c2O[C@H]1CN(C)C(=O)Nc1ccccc1
-2.8	CN(C(=O)c1cccc(NC(=O)Cc2ccc(NC(=O)C3CCCN(C(=O)c4ccccc4)C3)cc2)c1)C1CCCCC1 (stereo not given)
-5.7	C[C@H](CO)N1C[C@H](C)[C@@H](CN(C)C(=O)Nc2ccccc2)OCc2ccccc2-c2ccccc2C1=O
-3.7	CO[C@H]1CN(C)C(=O)c2ccc(NC(=O)C3CCCCC3)cc2OC[C@H](C)NC[C@H]1C
-2.3	C[C@H](CO)N1C[C@H](C)[C@H](CN(C)Cc2ccncc2)Oc2c(NS(=O)(=O)c3ccccc3)cccc2C1=O
-7.0	CCc1sc(/C=C(/C#N)C(N)=S)cc1[N+](=O)[O-]
2.6	C[C@@H]1CN([C@@H](C)CO)C(=O)Cc2cc(NC(=O)Nc3ccc(F)cc3)ccc2O[C@@H]1CN(C)S(=O)(=O)c1ccc(F)cc1
2.6	C[C@@H]1CN([C@@H](C)CO)C(=O)c2cc(NC(=O)Nc3ccc(C(F)(F)F)cc3)ccc2O[C@@H]1CN(C)S(=O)(=O)c1ccc(F)cc1
2.2	Cc1ccc(S(=O)(=O)N(C)C[C@@H]2Oc3c(NC(=O)Nc4ccc(F)cc4)cccc3C(=O)N([C@H](C)CO)C[C@@H]2C)cc1
0.9	CN1[C@@H]2c3ccc(-c4ccccc4)c(=O)n3C[C@@H]2[C@@H](CO)[C@@H]1C(=O)NC1Cc2ccccc2C1
-1.9	CO[C@@H]1CN(C)C(=O)c2cc(NS(=O)(=O)CC(F)(F)F)ccc2OC[C@H](C)N(CCC(F)(F)F)C[C@H]1C
-2.0	CC(=O)N(C)C[C@H]1OCc2ccccc2-c2c(n(C)c3ccccc23)C(=O)N([C@H](C)CO)C[C@H]1C
-1.3	C[C@H]1CN([C@@H](C)CO)C(=O)c2cc(NS(C)(=O)=O)ccc2O[C@H]1CN(C)S(=O)(=O)c1ccc(F)cc1
1.6	COc1ccc(NC(=O)Nc2ccc3c(c2)C(=O)N([C@H](C)CO)C[C@@H](C)[C@H](CN(C)Cc2ccc(C(F)(F)F)cc2)OCCCC[C@H](C)O3)cc1
-15	C[C@@H](NC(=O)C[C@@H]1C=C[C@H](NS(=O)(=O)c2cccc(F)c2)[C@@H](CO)O1)c1ccccc1
-0.2	O=C(c1cccnc1)N1CC(=O)N2[C@H](C1)[C@@H](c1ccc(-c3ccc(F)cc3)cc1)[C@@H]2CO
6.1	COc1ccc(NC(=O)Nc2ccc3c(c2)C(=O)N([C@@H](C)CO)C[C@H](C)[C@H](CN(C)S(=O)(=O)c2ccc(OC)cc2)O3)cc1
-3.1	C[C@@H]1CN([C@H](C)CO)C(=O)c2cc(C#Cc3cccc(F)c3)cnc2O[C@@H]1CN(C)C(=O)C1CCC1
0.8	COc1ccc2c3c([nH]c2c1)[C@@H](CO)N(C(=O)C1CCC1)CC31CCN(S(C)(=O)=O)CC1
0.0	O=[N+]([O-])c1cccc(COc2cccc(CN3CCCCC3)c2)c1
-2.6	C[C@H](O)C#Cc1cnc2c(c1)C(=O)N([C@H](C)CO)C[C@@H](C)[C@@H](CN(C)C(=O)c1ccc(F)cc1)O2
2.0	CN1CCN(C(=O)C[C@@H]2CC[C@H]3[C@H](COc4ccc(NC(=O)C5CCOCC5)cc4C(=O)N3C)O2)CC1
-1.1	CCC(=O)N1[C@H](CO)[C@H](c2ccccc2)C12CN(C(=O)CN1CCOCC1)C2
2.0	COc1ccc(NC(=O)Nc2cccc3c2O[C@@H](CN(C)C(=O)Nc2ccc4c(c2)OCO4)[C@H](C)CN([C@H](C)CO)C3=O)cc1

Reformatted with tabs: part of the list above.
Molecule	AF4-AF9 inh
C[C@H]1CN([C@@H](C)CO)C(=O)c2cc(NS(C)(=O)=O)ccc2O[C@H]1CN(C)S(=O)(=O)c1ccc(F)cc1	-1.3
COc1ccc(NC(=O)Nc2ccc3c(c2)C(=O)N([C@H](C)CO)C[C@@H](C)[C@H](CN(C)Cc2ccc(C(F)(F)F)cc2)OCCCC[C@H](C)O3)cc1	1.6

Next section:
AF4-AF9 inh	mol
-0.8	Cc1ccc(S(=O)(=O)N(C)C[C@H]2OCCCC[C@@H](C)Oc3ccc(NC(=O)c4ccccc4)cc3C(=O)N([C@H](C)CO)C[C@@H]2C)cc1
-8.3	COc1ccc(C#Cc2ccc3c(c2)O[C@H](CN(C)C(=O)c2ccccn2)[C@H](C)CN([C@H](C)CO)S3(=O)=O)cc1
0.2	CCCC(O)C#Cc1cnc2c(c1)C(=O)N([C@H](C)CO)C[C@H](C)[C@H](CN(C)C(=O)Nc1ccccc1)O2 (stereo not given in full)
-0.5	CCC(=O)N(C)C[C@@H]1Oc2cc(C#Cc3ccncc3)ccc2S(=O)(=O)N([C@H](C)CO)C[C@@H]1C
-2.0	CO[C@@H]1CN(C)C(=O)c2ccc(NS(C)(=O)=O)cc2OC[C@@H](C)N(C(=O)NC(C)C)C[C@H]1C
-11	CCCOc1ccc(F)cc1-c1cc(C(=O)Nc2ccc(C(C)C)cc2)[nH]n1
8.4&3.6	CO[C@@H]1CN(C)C(=O)c2cc(NC(=O)Nc3ccc4c(c3)OCO4)ccc2OC[C@@H](C)N(C)C[C@H]1C
0.6	C[C@@H]1CN([C@H](C)CO)C(=O)c2cc(NC(=O)Nc3ccc(C(F)(F)F)cc3)ccc2O[C@@H]1CN(C)S(=O)(=O)c1ccc(Cl)cc1
-5.1	C[C@H](CO)N1C[C@H](C)[C@@H](CN(C)Cc2ccccc2)Oc2ccc(NC(=O)c3ccncc3)cc2CC1=O
1.4	Cn1ccc2c(-c3ccc(F)nc3)cc3c(c21)C1CCC3O1 (stereo not given)
1.7&3.0	C[C@@H]1CN([C@H](C)CO)C(=O)c2cc(NC(=O)Nc3ccccc3)ccc2O[C@@H](C)CCCCO[C@H]1CN(C)S(C)(=O)=O
-2.1	N#C[C@H]1[C@@H](c2ccccc2)[C@H](CO)N1S(=O)(=O)c1cccc(F)c1
-0.8	C[C@@H]1CCCCO[C@@H](CN(C)S(=O)(=O)c2ccc(Cl)cc2)[C@@H](C)CN([C@H](C)CO)C(=O)c2cc(NS(=O)(=O)c3ccc(F)cc3)ccc2O1
2.1	C[C@H]1CN([C@@H](C)CO)C(=O)c2cccc(NC(=O)Nc3ccc(C(F)(F)F)cc3)c2O[C@@H]1CN(C)S(=O)(=O)c1cccs1
-2.7	CC1(c2nc3ccccc3[nH]2)CCC(=O)N1Cc1ccc(F)cc1 (stereo not given)
0.8	C[C@@H]1CN([C@@H](C)CO)C(=O)c2cccc(NC(=O)c3ccc(-c4nccs4)cc3)c2O[C@H]1CN(C)Cc1ccc(C(=O)Nc2ccccc2N)cc1
1.5	C[C@@H]1CCCCO[C@@H](CN(C)S(C)(=O)=O)[C@H](C)CN([C@@H](C)CO)C(=O)c2cc(NC(=O)Nc3cccc4ccccc34)ccc2O1
3.2	C[C@@H]1CN([C@H](C)CO)C(=O)c2cc(C3=CCCC3)cnc2O[C@H]1CN(C)Cc1ccccc1
3.5	CC(C)C#Cc1ccc([C@@H]2[C@@H](C#N)N(C(=O)c3ccccn3)[C@H]2CO)cc1
-4.6	C[C@@H]1CN([C@@H](C)CO)C(=O)c2cc(C#CCC3CCCC3)cnc2O[C@@H]1CN(C)C(=O)c1cnccn1
-0.7	CNC[C@@H]1Oc2cc(C#C[C@H](C)O)ccc2S(=O)(=O)N([C@@H](C)CO)C[C@H]1C
0.9	CO[C@H]1CN(C)C(=O)c2ccc(NC(=O)C3CCCC3)cc2OC[C@H](C)N(CCC(F)(F)F)C[C@@H]1C
0.3	CCC(=O)N1C[C@@H](C)[C@@H](OC)CN(C)C(=O)c2cc(NS(C)(=O)=O)ccc2OC[C@@H]1C
-0.4	CCN(C(=O)COC(=O)CCC(=O)c1ccc(Cl)cc1)c1c(N)n(Cc2ccccc2)c(=O)[nH]c1=O
-1.5	O=C(C[C@H]1C=C[C@H](NC(=O)Nc2ccccc2F)[C@H](CO)O1)NCc1ccc(F)cc1
9.5	O=C(C[C@@H]1CC[C@@H]2[C@H](COC[C@@H](O)CN2Cc2ccc(Oc3ccccc3)cc2)O1)N1CCN(c2ccccc2)CC1
-14	COc1cccc(-c2ccc3c(c2)O[C@@H](CN(C)C(=O)c2ccccc2F)[C@@H](C)CN([C@H](C)CO)S3(=O)=O)c1
3.6	CC(C)CC#Cc1cnc2c(c1)C(=O)N([C@H](C)CO)C[C@@H](C)[C@@H](CN(C)Cc1ccc(F)cc1)O2
-2.5	Cn1nc(C(C)(C)C)cc1N1C(=O)CCC1(C)C(=O)NC1CCCC1 (stereo not given)
1.5	C[C@H](CO)N1C[C@H](C)[C@@H](CN(C)C(=O)c2cnccn2)Oc2ncc(/C=C/c3ccccc3)cc2C1=O
-3.0	CCC(=O)N1[C@@H](CO)[C@H](c2ccccc2)C12CN(C(=O)NC1CCCC1)C2
-5.4	O=C(C[C@H]1C=C[C@H](NC(=O)c2ccc3c(c2)OCO3)[C@H](CO)O1)NCc1ccc(F)cc1
?	CN(C)c1ccc(NC(=O)CSc2n[nH]c(-c3ccncc3)n2)cc1
9.0	OC[C@@H]1[C@H](c2ccc(-c3cccc(F)c3)cc2)[C@@H]2CN(CCC(F)(F)F)CCCCN12
3.9	COc1cc(-c2cc(NC(C)=O)c3ncc(-c4ccccc4)n3c2)cc(OC)c1OC
1.1	CNC(=O)C[C@@H]1CC[C@@H]2[C@@H](COc3ccc(NC(=O)Nc4ccc(Cl)cc4)cc3C(=O)N2C)O1
-1.2	CC=Cc1ccc2n(c1=O)C[C@H]1[C@H](CO)[C@@H](C(=O)NCCC)N(Cc3cocn3)[C@@H]21 (mixture of isomers)
2.0	CS(=O)(=O)N1[C@H](C#N)[C@H](c2ccccc2-c2ccc(F)cc2)[C@H]1CO
3.1	O=C(Nc1ccccc1)N[C@H]1CC[C@H](CCNS(=O)(=O)c2cccc(F)c2)O[C@@H]1CO
-3.6	COc1ccccc1C#Cc1ccc([C@H]2[C@H]3CN(C(=O)C4CC4)CCCCN3[C@H]2CO)cc1
0.4	COc1ccccc1C(=O)Nc1ccc2c(c1)C(=O)N(C)C[C@@H](OC)[C@H](C)CN(CC1CC1)[C@@H](C)CO2
-3.4	C[C@H]1CN([C@@H](C)CO)C(=O)c2cc(C#CC3(O)CCCC3)cnc2O[C@@H]1CN(C)C(=O)CN(C)C
-2.0	CCCOc1ccc(F)cc1-c1cc(C(=O)Nc2ccc(F)c(Cl)c2)[nH]n1
-2.7	COc1ccccc1C(=O)N1C[C@H]2[C@@H](c3ccccc31)[C@@H](CO)N2Cc1ccc(F)cc1
-0.8	COCC(=O)Nc1ccc2c(c1)OC[C@H](C)N(C)C[C@@H](C)[C@@H](OC)CN(C)C2=O
-6.3	COc1ccc2c3c([nH]c2c1)[C@H](CO)N(Cc1ccncc1)CC31CN(C(=O)CN(C)C)C1
0.0	O=C(Nc1ccc(Br)cc1Br)Nc1cccc2[nH]c([C@@H]3O[C@H](CO)[C@@H](O)[C@H](O)[C@H]3O)nc12
-3.7	Cc1noc(C)c1S(=O)(=O)N(C)C[C@@H]1Oc2ccc(NC(=O)Nc3ccc(F)cc3)cc2CC(=O)N([C@@H](C)CO)C[C@H]1C
1.0	CO[C@@H]1CN(C)C(=O)c2ccc(NC(=O)c3cccc(F)c3)cc2OC[C@H](C)N(CC2CC2)C[C@@H]1C
-2.2	COc1ccc(-c2cnc3c(c2)C(=O)N([C@H](C)CO)C[C@H](C)[C@H](CN(C)S(=O)(=O)c2cccc(F)c2)O3)cc1

Following part.
AF4-AF9 inh	mol
3.7	N#Cc1cccc(-c2ccc([C@H]3[C@H](CO)N4CCCCN(C(=O)Nc5ccccc5)C[C@@H]34)cc2)c1
-7.8	CCOC(=O)C1=CC[C@@H](c2ccc3ccccc3n2)[C@@H]1C(=O)c1ccccc1
-2.5	COc1ccccc1C#Cc1ccc([C@H]2[C@@H](CO)N3CCCCN(C(=O)C4CCC4)C[C@@H]23)cc1
-0.4	CCOC(=O)C(=C1Nc2ccccc2N1)n1c(-c2cccnc2)nc2ccccc21
4.2	OC(c1ccccc1)c1nc(-c2cccs2)cs1 (stereo not given)
-11	C[C@H](CO)N1C[C@H](C)[C@@H](CN(C)S(=O)(=O)c2cn(C)cn2)Oc2ccc(NC(=O)Cc3cn(C)c4ccccc34)cc2C1=O
1.9	COc1ccc(S(=O)(=O)N(C)C[C@@H]2Oc3c(NC(=O)c4ccc(-c5nccs5)cc4)cccc3C(=O)N([C@H](C)CO)C[C@@H]2C)cc1

11 entries from above, in markdown:
| Structure | AF4-AF9 inh |
| --- | --- |
| O=C(Nc1ccc(Br)cc1Br)Nc1cccc2[nH]c([C@@H]3O[C@H](CO)[C@@H](O)[C@H](O)[C@H]3O)nc12 | 0.0 |
| Cc1noc(C)c1S(=O)(=O)N(C)C[C@@H]1Oc2ccc(NC(=O)Nc3ccc(F)cc3)cc2CC(=O)N([C@@H](C)CO)C[C@H]1C | -3.7 |
| CO[C@@H]1CN(C)C(=O)c2ccc(NC(=O)c3cccc(F)c3)cc2OC[C@H](C)N(CC2CC2)C[C@@H]1C | 1.0 |
| COc1ccc(-c2cnc3c(c2)C(=O)N([C@H](C)CO)C[C@H](C)[C@H](CN(C)S(=O)(=O)c2cccc(F)c2)O3)cc1 | -2.2 |
| N#Cc1cccc(-c2ccc([C@H]3[C@H](CO)N4CCCCN(C(=O)Nc5ccccc5)C[C@@H]34)cc2)c1 | 3.7 |
| CCOC(=O)C1=CC[C@@H](c2ccc3ccccc3n2)[C@@H]1C(=O)c1ccccc1 | -7.8 |
| COc1ccccc1C#Cc1ccc([C@H]2[C@@H](CO)N3CCCCN(C(=O)C4CCC4)C[C@@H]23)cc1 | -2.5 |
| CCOC(=O)C(=C1Nc2ccccc2N1)n1c(-c2cccnc2)nc2ccccc21 | -0.4 |
| OC(c1ccccc1)c1nc(-c2cccs2)cs1 (stereo not given) | 4.2 |
| C[C@H](CO)N1C[C@H](C)[C@@H](CN(C)S(=O)(=O)c2cn(C)cn2)Oc2ccc(NC(=O)Cc3cn(C)c4ccccc34)cc2C1=O | -11 |
| COc1ccc(S(=O)(=O)N(C)C[C@@H]2Oc3c(NC(=O)c4ccc(-c5nccs5)cc4)cccc3C(=O)N([C@H](C)CO)C[C@@H]2C)cc1 | 1.9 |

Assay outcomes (PubChem BioAssay)
